# Screening data deposited in PubChem by several laboratories.
# Arbovirus anti – arbovirus infection inhibition; arbovirus infection cell-based antiviral screen; inhibition, % at 10 µM; 200,000 compounds, 0.37% hits;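 active means inhibition from about 30%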;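 further: bluetongue infection of BSR cells; cell survival read as ATP light after 72 h; 0% = infected wells without compound and 100% = uninfected wells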
# Mtb growth – M. tuberculosis H37Rv growth inhibitors, H37Rv strain (AID 1626). M. tuberculosis H37Rv growth inhibition; higher % means a stronger effect. inhibition, % at 10 µM, or IC50 in µM where a hit was titrated. 220,000 compounds, 0.95% hits;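 active means confirmed in a dose series; inconclusive means inhibition above 80% but not taken into the dose series; inactive means below 80% or under 30% at every dose of the series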;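 further: bacteria incubated seven days before Alamar blue readout; 0% = bacteria only wells and 100% = bacteria with antibiotic wells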
# Mtb betalactam – beta-lactam sensitization of Mtb H37Rv. M. tuberculosis H37Rv growth with meropenem, percent inhibition; hits of this screen are not shown here. inhibition, % at 25 µM. 330,000 compounds, 0.27% hits. AID 434955;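 active means about 74% or more and at least 40 points above the plate without the antibiotic, then above 30% in a dose series; inconclusive means first-round hits that could not be retested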;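 further: growth measured after seven days incubation then overnight dye step; 0% = bacteria only wells and 100% = bacteria with antibiotic; twin plates without the antibiotic show which effects depend on it; some results filed as inactive read as strong as hits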
# RecA intein inh – blocks M. tuberculosis RecA intein splicing; P9WHJ3; cell-free RecA intein splicing, fluorescence; inhibition, %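 (about 9 µM by stock and volumes)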; 290,000 compounds, 0.75% hits; AID 2221; in the data active means inhibition above about 30%; inconclusive means no clear call, values can overlap the other calls;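 further: 0% = vehicle wells and 100% = reference inhibitor control wells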
# Target sequence (P9WHJ3 whole entry, looked up): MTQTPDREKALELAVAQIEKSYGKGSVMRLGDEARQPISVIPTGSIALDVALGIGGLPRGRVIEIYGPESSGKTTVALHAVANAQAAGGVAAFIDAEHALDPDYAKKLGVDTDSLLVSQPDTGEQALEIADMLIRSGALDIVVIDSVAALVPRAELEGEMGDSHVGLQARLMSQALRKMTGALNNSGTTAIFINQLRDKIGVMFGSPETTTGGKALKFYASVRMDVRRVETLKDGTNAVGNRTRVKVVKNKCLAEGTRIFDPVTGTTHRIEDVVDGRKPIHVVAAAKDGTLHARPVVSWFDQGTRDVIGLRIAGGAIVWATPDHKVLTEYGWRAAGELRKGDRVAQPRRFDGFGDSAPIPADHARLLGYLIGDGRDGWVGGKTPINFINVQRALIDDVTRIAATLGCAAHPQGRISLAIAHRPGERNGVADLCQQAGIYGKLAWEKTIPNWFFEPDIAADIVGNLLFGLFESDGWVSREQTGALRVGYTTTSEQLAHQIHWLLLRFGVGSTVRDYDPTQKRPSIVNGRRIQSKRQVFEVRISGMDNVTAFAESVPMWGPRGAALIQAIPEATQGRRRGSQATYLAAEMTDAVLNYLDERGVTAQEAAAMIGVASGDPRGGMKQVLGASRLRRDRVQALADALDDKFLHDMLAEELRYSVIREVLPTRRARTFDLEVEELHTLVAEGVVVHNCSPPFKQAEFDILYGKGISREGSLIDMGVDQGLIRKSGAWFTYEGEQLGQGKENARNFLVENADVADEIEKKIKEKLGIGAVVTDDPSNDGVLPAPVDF
# YopH PTP inh – YopH (Yersinia) phosphatase inhibition; inhibition, %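 (about 10 µM by stock and volumes)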; fluorescence Ex485/Em525; 140,000 compounds, 0.16% hits;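 active means inhibition of 50% or more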;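 further: controls were vehicle for no effect and minimum signal wells for full effect; inactives centre near -20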
# Arbovirus anti repeat – further read-out of Arbovirus anti, marked with its call; inhibition, %; measured here: 10K subset replicate screen; many hits read low in the repeat;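 first of two repeat runs on a subset; 0% = infected and 100% = uninfected wells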
# The depositor's hits bear a star; ? = inconclusive; nt = no result given; & = joins results of further samples; ! = a repeat was not active. The list is partial; rates above refer to the full screens.
SMILES,Arbovirus anti,Mtb growth,Mtb betalactam,RecA intein inh,YopH PTP inh,others
CCC/C(=N\NC(=O)CNC(=O)/C=C/c1ccco1)c1ccccc1,5,2%,-5,-1.2,-21,
CCN(CC)Cc1c[nH]c2c(C(=O)OC)cccc12,6,5%,9,1.2,-33,Arbovirus anti repeat=8
COc1ccc(CCNC(=O)Cc2cccs2)cc1OC,-3,-8%,6,1.5,nt,
C=CCOC(=O)C1=C(C)NC(=O)NC1/C=C/c1ccccc1OC (centres undefined),6,-6%,9,4.6,-26,
O=[N+]([O-])c1ncn(C23CC4CC(CC(C4)C2)C3)n1,nt,-1%,-3,1.1,nt,
Cc1cccc(C)c1NC(=S)N/N=C/c1c(Cl)cccc1Cl,-4,0%,6,-2.7,nt,
CC1(C)CC(=O)C(=Cc2cn(CCC#N)nc2-c2ccc(Cl)cc2)C(=O)C1,5,1%,8,nt,-17,
O=C(O)c1cccnc1-c1ncccc1C(=O)O,-2,5%,-8,1.5,-10,
Cc1nn(C)c(C)c1NC(=O)c1ccc(Cl)cc1,-1,2%,-5,2.7,0,
COc1ccc(CCNC(=O)c2nnn(-c3cccc(C)c3)c2N)cc1OC,-5,2%,3,-0.1,-19,
CC1CC(C)CN(C(=O)c2ccc3c(c2NCCO)C(=O)c2ccccc2C3=O)C1 (centres undefined),-16,-4%,12,13,2,
CCC(C(=O)Nc1c2c(nn1C(C)(C)C)CS(=O)(=O)C2)c1ccccc1 (centres undefined),nt,nt,-10,-0.5,nt,
O=C(Cn1nc(-c2ccc3c(c2)OCCO3)ccc1=O)Nc1ccc(N2CCOCC2)cc1,7,1%,-3,3.8,-32,
COc1ccc(S(=O)(=O)N2CCN(c3nc4ccccc4nc3-n3nc(C)cc3C)CC2)cc1,-1,-2%,nt,-0.6,16,
CCCCC(C(=O)O)C(C)CC(=O)Nc1nncs1 (centres undefined),nt,-3%,8,-1.6,nt,
N=C(N)SCc1nc2ccccc2c(=O)n1-c1ccccc1,30*!,2%&57%,-1&-14,-3.2,-12&-22,
Cc1nnc(SCC(=O)NNC(=O)c2ccc(Br)cc2)n1C,0,-5%,-13,-0.4,nt,
C=CCN1C(=O)[C@]2(c3ccccc31)C1CCCC=C1C(C#N)=C(N)C2(C#N)C#N (some centres undefined),3,-4%,-21,-0.8,-8,
CCC(=O)N1CCc2cc(S(=O)(=O)CCC(=O)Nc3cccc(C)n3)ccc21,7,3%,0,-3.1,nt,
CNc1c([N+](=O)[O-])cnn1-c1ccc(F)cc1,2,-2%,-5,1.2,nt,

# Structures from the list above that contain a cyano group, in the order listed:
SMILES,Arbovirus anti,Mtb growth,Mtb betalactam,RecA intein inh,YopH PTP inh,others
CC1(C)CC(=O)C(=Cc2cn(CCC#N)nc2-c2ccc(Cl)cc2)C(=O)C1,5,1%,8,nt,-17,
C=CCN1C(=O)[C@]2(c3ccccc31)C1CCCC=C1C(C#N)=C(N)C2(C#N)C#N (some centres undefined),3,-4%,-21,-0.8,-8,

# Seven records picked at random from the list so far:
SMILES,Arbovirus anti,Mtb growth,Mtb betalactam,RecA intein inh,YopH PTP inh,others
C=CCN1C(=O)[C@]2(c3ccccc31)C1CCCC=C1C(C#N)=C(N)C2(C#N)C#N (some centres undefined),3,-4%,-21,-0.8,-8,
Cc1cccc(C)c1NC(=S)N/N=C/c1c(Cl)cccc1Cl,-4,0%,6,-2.7,nt,
CNc1c([N+](=O)[O-])cnn1-c1ccc(F)cc1,2,-2%,-5,1.2,nt,
O=C(O)c1cccnc1-c1ncccc1C(=O)O,-2,5%,-8,1.5,-10,
COc1ccc(S(=O)(=O)N2CCN(c3nc4ccccc4nc3-n3nc(C)cc3C)CC2)cc1,-1,-2%,nt,-0.6,16,
CCC/C(=N\NC(=O)CNC(=O)/C=C/c1ccco1)c1ccccc1,5,2%,-5,-1.2,-21,
CCC(=O)N1CCc2cc(S(=O)(=O)CCC(=O)Nc3cccc(C)n3)ccc21,7,3%,0,-3.1,nt,

# Next part
SMILES,Arbovirus anti,Mtb growth,Mtb betalactam,RecA intein inh,YopH PTP inh,others
CC(CNc1ccccc1O)C(=O)O (centres undefined),0,4%,-2,50*,34,
O=C(CC1C(=O)NCCN1Cc1ccc(-c2ccccc2)cc1)NCCOc1cccnc1 (centres undefined),0,1%,-3,0.0,nt,
CCC1CCCCN1CCCNC(=O)C1CCC(Cn2c(=O)[nH]c3ccccc3c2=O)CC1 (centres undefined),6,-6%,-13,-0.6,-10,
CC(C)=CCCC1(C)C=Cc2c(ccc3c2[nH]c2cc(O)c(C)cc23)O1 (centres undefined),-20,17%,12,3.5,nt,
Cc1ccc(NC(=O)CSc2ncc(-c3ccccc3)n2C(=O)c2ccccc2)cc1,-18,10%,1,54*,-25,
O=C(O)c1ccc(N2C(=O)CC(Cc3ccccc3)C2=O)cc1 (centres undefined),11,3%,?,nt,-10,Arbovirus anti repeat=2
CC(=O)NC1=NN(C(C)=O)C(C)(c2ccccc2)S1 (centres undefined),-8,0%,5,0.6,-25,
CCCCOCCCNC(=O)c1cccc(OC)c1,3,-6%,-5,0.7,-9,
Cc1ncsc1CCSc1nc2ccccc2c(=O)n1C,2,7%,6,-1.9,-48,
Cc1cc(NC(=O)CCN2C(=O)/C(=C\c3ccccc3Cl)SC2=S)no1,-6,-1%,-9,-0.3,nt,
CC(C)c1ccc(NC(=O)C(c2ccccc2)N2CCN(C=O)CC2)cc1 (centres undefined),0,-13%,-3,-2.4,-21,
CCOC(=O)c1ccccc1NC(=O)Cn1c(-c2nonc2N)nc2ccccc21,-5,1%,6,2.3,-6,
Cc1ccc(C(=O)NCCNc2ccc([N+](=O)[O-])cc2C(F)(F)F)cc1,3,5%,4,-3.0,-6,
CC1CCC(NCCNC(=O)c2ccco2)CC1 (centres undefined),nt,nt,-5,-1.1,nt,
Cc1nc2c(-c3ccccc3)c(C)nn2c(C)c1CCC(=O)O,8,2%,2,-1.6,-16,
O=c1cc(CSc2nnc(-c3cccs3)n2Cc2ccccc2)nc2sc3ccccc3n12,19,5%,0,4.0,-37,
CCCCC(CC)CNC(=O)/C=C/c1ccc(F)cc1 (centres undefined),-28,9%,2,0.3,-23,
CCN(CC)S(=O)(=O)c1ccc(C)c(NC(=S)NNC(=O)C2CC2)c1,3,-7%,-8,-0.3,-18,
Cc1ccccc1-n1c(=O)cc(N2CCC3(CC2)OCCO3)[nH]c1=O,3,-4%,-6,-2.4,-5,
COC(=O)[C@H](C)NC(=O)Nc1cccc(C)c1,5,5%,1,1.3,10,
Cc1cc(OC(C)C(=O)NCCCN2CCOCC2)c2c(C)cc(=O)oc2c1 (centres undefined),nt,nt,2,0.3,nt,
CCOc1ccc(/C=N/NC(=O)c2ccc(Cn3cc([N+](=O)[O-])cn3)o2)cc1,-1,-1%,-3,1.4,-11,
c1ccc(COCCCn2cc(-c3ccccc3)nn2)cc1,nt,nt,-7,0.2,nt,
CCn1cc(C(=O)NCc2ccc(OC)cc2)c(=O)c2ccc(C)nc21,nt,nt,-4,-2.7,nt,
CC(=O)Cc1nsc(NC(=O)c2ccc(F)cc2)n1,6,-6%,-2,5.6,nt,
CC1C(=O)C(C)C(c2ccc([N+](=O)[O-])cc2)NC1c1ccc([N+](=O)[O-])cc1 (centres undefined),-13,1%,-11,-2.7,nt,
COc1ccc(CCC(=O)Nc2ccccc2C(F)(F)F)cc1,-3,-5%,7,-1.0,-13,
O=C(NCc1ccco1)c1cc(-c2cccnc2)nc2ccc(Cl)cc12,-8,10%,41,3.7,-18,
Oc1ccccc1-c1cc(-c2ccc(Cl)cc2)n[nH]1,nt,nt,17,-2.9,nt,
CC1CCN(CCC(=O)Nc2ccc(Br)cc2)CC1,nt,-1%,2,2.7,37,
CC(C)CCNC(=O)c1cc2c(=O)n3ccccc3nc2s1,nt,nt,0,-149,nt,
O=C(Cc1cccs1)N1CCN(c2ccc(F)cc2)CC1,10,-2%,-14,-1.5,5,
COc1cc(CN2CCC(n3nccc3NC(=O)c3ccccc3OC)CC2)ccc1F,nt,nt,?,-1.9,nt,
CCc1c(C(=O)c2ccc(Cl)cc2)oc2c(C)c3oc(=O)cc(C)c3cc12,-11,2%,-13,-1.4,-67,
CC1CNc2c(cccc2S(=O)(=O)N[C@@H](CCCN=C(N)N)C(=O)N2CC[C@@H](C)C[C@@H]2C(=O)O)C1 (some centres undefined),0,-9%&-9%,nt,nt,nt,
O=C(CN1C(=O)c2ccccc2S1(=O)=O)Nc1ccc(S(=O)(=O)N2CCCCCC2)cc1,4,-7%,-2,1.1,-3,
COc1ccc(S(=O)(=O)NNC(=O)Nc2ccc(F)cc2F)c(OC)c1,nt,nt,-9,-2.2,nt,
O=C(Oc1ccc2c(-c3ccccc3)cc(=O)oc2c1)C1CCCCC1,0,-4%,2,1.5,-7,
CCN(CC)S(=O)(=O)c1ccc(NC(=O)CN(c2ccc(OC)cc2OC)S(C)(=O)=O)cc1,-19,-6%,0,-2.8,-12,
Cc1ccccc1NS(=O)(=O)c1cccc(-c2nnc(-c3ccccc3)o2)c1,0,2%,3,2.0,-35,Arbovirus anti repeat=-1
Cc1cccc(N(Cc2cc3cc(C)ccc3[nH]c2=O)C(=O)c2cccs2)c1,nt,-12%,5,0.7,nt,
Cc1ccccc1OCCC(=O)OCC(=O)NC1CCS(=O)(=O)C1 (centres undefined),nt,nt,-3,-2.8,nt,
COc1ccccc1N1CCN(C(CNS(=O)(=O)c2cc(F)ccc2F)c2cccnc2)CC1 (centres undefined),3,8%,3,3.2,-39,
CCC(C)N1CC(C(=O)O)CC1=O (centres undefined),8,2%,3,-0.4,-6,
O=C(NNC1CC(=O)N(c2ccc(Cl)cc2)C1=O)c1ccco1 (centres undefined),11,-4%,1,0.5,nt,
CCCCN(C)Cc1c(C)[nH]c2ccc(OCC)cc2c1=O,-3,5%,5,0.1,-28,Arbovirus anti repeat=1
C=CCSc1nnc2c(n1)OC(c1ccco1)Nc1ccccc1-2 (centres undefined),4,1%,-10,5.4,-33,
COc1ccc(Cn2nnnc2C(c2ccc(C)cc2)N2CCN(C3CCCC3)CC2)cc1 (centres undefined),-7,7%,-2,3.7,-28,
O=[N+]([O-])c1ccc2c(c1)C(N1CCOCC1)/C(=C/C1(O)CCCCC1)O2 (centres undefined),-3,-11%,4,-2.4,nt,
COC(=O)c1sc(N2C(=O)C(O)=C(C(=O)c3ccc(C)o3)C2c2cccs2)nc1C (centres undefined),nt,nt,-2,-7.5,nt,
C=CCOc1ccc(C(=O)Nc2ccc(OCC)cc2)cc1,-1,22%,-2,0.4,nt,
O=C(O)c1cccc2c1/C(=N/Nc1ccc([N+](=O)[O-])cc1[N+](=O)[O-])c1ccccc1-2,nt,nt,-3,0.0,nt,
CCCOc1cccc(C(=O)NCCCNC(=O)c2ccccn2)c1,nt,nt,-11,0.8,nt,
Cc1cc(=O)[nH]c(N=N/C(=N/Nc2ccc(O)cc2)c2ccccc2)n1,-35,37%,84,-5.8,-17,
COC1(NS(=O)(=O)c2ccc(Br)cc2)C(C)=CC(=O)C=C1C,2,1%,-2,-0.6,nt,
Cc1ccc(N2C(=O)NC3(CCCCC3)C2=O)cc1,-1,nt,-8,2.2,-37,
OCCN1CCN(Cc2cccc(Oc3ccc(Cl)cc3)c2)CC1,-7,3%,-10,-0.6,-10,Arbovirus anti repeat=-31
Cc1oc2c(CN(C)C)c(O)ccc2c(=O)c1-c1ccc2ccccc2n1,8,-9%,4,-2.0,-46,
CC(=O)Nc1cccc(C(=O)OC(C)C(=O)N2CCc3ccccc32)c1 (centres undefined),nt,nt,-10,-1.2,nt,
O=c1c2ccccc2nc(N/N=C/c2ccccc2)n1O,12,-2%,7,-6.7,7,
COc1ccccc1N1CCN(Cc2nnnn2CCc2ccccc2)CC1,-9,-10%,3,0.4,-30,
CCC(C)NS(=O)(=O)c1ccc(OCC(=O)Nc2ccc(F)cc2F)cc1 (centres undefined),-4,-10%,-6,-0.6,-15,
NP(=O)(Oc1ccccc1Cl)Oc1ccccc1Cl,5,-7%,9,2.2,nt,

# Ordered by heavy-atom count (lowest first): some entries from above.
SMILES,Arbovirus anti,Mtb growth,Mtb betalactam,RecA intein inh,YopH PTP inh,others
CCCCN(C)Cc1c(C)[nH]c2ccc(OCC)cc2c1=O,-3,5%,5,0.1,-28,Arbovirus anti repeat=1
C=CCSc1nnc2c(n1)OC(c1ccco1)Nc1ccccc1-2 (centres undefined),4,1%,-10,5.4,-33,
O=[N+]([O-])c1ccc2c(c1)C(N1CCOCC1)/C(=C/C1(O)CCCCC1)O2 (centres undefined),-3,-11%,4,-2.4,nt,
